INS promoter inh – TRM-6 insulin promoter activity inhibition; TRM-6 cells (human fetal islet line), insulin promoter-eGFP reporter, imaging; reporter expression induced with tamoxifen; inhibition, % at 2 µM; 130,000 tested, 0.9% active; AID 1273;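 active means inhibition above the mean plus 3 SD, with well images judged a real hit on visual review, cut at about 60% in these data, passing the limit was not always enough; inconclusive means inhibition over the cutoff but images rejected on review; inactive means inhibition not above the cutoff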
GALR2 agonist – GALR2 (human) receptor agonism. GALR2-expressing cells, agonist activation read-out. activation, %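 (tested at 5 µM)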. 140,000 tested, 0.48% active;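 active means above mean plus 3 SD of all compounds, about 5% in these data, not always enough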;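 further: 0% = vehicle buffer wells and 100% = reference agonist at full effect; tested in CHO reporter cells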
Target sequence (O43603 whole entry, looked up): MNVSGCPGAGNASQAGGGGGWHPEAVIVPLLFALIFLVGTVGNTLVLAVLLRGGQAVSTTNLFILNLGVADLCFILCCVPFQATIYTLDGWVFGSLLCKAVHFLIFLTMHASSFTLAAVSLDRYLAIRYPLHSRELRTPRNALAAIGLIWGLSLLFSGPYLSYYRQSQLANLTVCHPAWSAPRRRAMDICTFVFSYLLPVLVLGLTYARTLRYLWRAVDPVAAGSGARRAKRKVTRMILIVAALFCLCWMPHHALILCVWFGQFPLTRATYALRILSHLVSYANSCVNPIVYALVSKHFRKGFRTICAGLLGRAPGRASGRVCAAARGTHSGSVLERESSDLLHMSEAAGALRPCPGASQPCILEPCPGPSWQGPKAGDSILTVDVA
PKD1 kinase inh – blocks activity of human protein kinase D1; inhibition, %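 (about 10 µM by stock and volumes)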; 200,000 tested, 0.056% active; Q15139; AID 797; PKD1 kinase fluorescence polarization assay;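 active means inhibition of 50% or more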;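 further: controls were vehicle for no effect and a reference inhibitor for full effect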
HSV replic up – HSV replication enhancement; HSV replication augmentation in cells, fold increase; 220,000 tested, 0.005% active; maximum fold increase;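 active means peak rise of 1.5-fold or more in the series; inconclusive means self-fluorescent or not available for retest; tested in PC3 cells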;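 further: first round at 10 µM; read as green reporter fluorescence; hits show the peak of a series up to 25 µM; 1 = signal of infected wells without compound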
RGS16-Gao HTS – modulates binding between human RGS16 and Galphao; O15492+P09471; bead-based flow cytometry RGS16-Galphao binding, fluorescence; actives lie on both sides; binding response (% of control), % at 10 µM; 220,000 tested, 0.38% active; AID 1441;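 active means below 25% or above 175%, edge rows of some plates excepted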;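 further: Galphao activated by GDP with aluminum fluoride before binding; 100% = wells without compound and 0% = beads without RGS; some results beyond the cut were filed as inactive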
Target sequence (O15492 whole entry, looked up): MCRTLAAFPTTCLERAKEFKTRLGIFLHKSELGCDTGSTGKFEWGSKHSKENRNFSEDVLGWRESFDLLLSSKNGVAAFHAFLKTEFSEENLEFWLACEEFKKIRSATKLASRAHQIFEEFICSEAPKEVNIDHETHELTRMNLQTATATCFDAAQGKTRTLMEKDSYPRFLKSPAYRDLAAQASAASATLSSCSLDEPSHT
Target sequence (P09471 whole entry, looked up): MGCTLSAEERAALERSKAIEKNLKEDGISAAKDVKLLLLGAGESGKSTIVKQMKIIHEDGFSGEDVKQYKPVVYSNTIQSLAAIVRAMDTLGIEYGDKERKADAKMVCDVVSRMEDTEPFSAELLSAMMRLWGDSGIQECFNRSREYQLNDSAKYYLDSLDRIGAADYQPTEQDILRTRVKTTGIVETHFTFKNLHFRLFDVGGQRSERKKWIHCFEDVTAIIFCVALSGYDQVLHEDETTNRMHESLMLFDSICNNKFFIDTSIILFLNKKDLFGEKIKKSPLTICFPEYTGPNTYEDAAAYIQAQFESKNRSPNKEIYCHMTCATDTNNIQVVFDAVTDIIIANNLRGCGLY
INS promoter inh cell count – further read-out of INS promoter inh, marked with its call; normalized cell count, %; measured here: cell count, toxicity; reference of the scale not given here;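 cells exposed to compound for 48 h; stained nuclei by imaging scaled within each plate; lower means fewer cells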
HSV replic up primary fold – further read-out of HSV replic up, marked with its call; fold increase; compound at 10 µM; measured here: primary screen fold increase 10 uM; tested in PC3 cells;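 GFP signal in the first replicate; 1 = infected wells without compound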
* = called active by the depositor; i = inactive; ? = inconclusive; nt = no result given; [ ] = dose if it differs, or a comment.

SMILES	INS promoter inh	INS promoter inh cell count	GALR2 agonist	PKD1 kinase inh	HSV replic up	HSV replic up primary fold	RGS16-Gao HTS
COc1ccc(C(C)NC(=O)c2ccccc2)cc1 (stereo not drawn)	-3	99	-2.4	-3	i	0.96	102
O=C(CSc1nnc(CCc2nc3ccccc3[nH]2)n1-c1ccccc1)NCc1ccco1	-42	106	2.1	-15	i	1	102
CC(=O)Cc1nsc(NC(=O)c2ccc(-c3ccc(Cl)cc3Cl)o2)n1	-277	64	-3.2	-3	i	1.1	98
COc1ccc(-n2nc(C(=O)O)nc2-c2ccccc2)cc1	-26	77	-3.2	5	i	0.97	104
NC(=O)CC12CC3CC(C1)CC(CC(N)=O)(C3)C2	-3	147	-3.2	-2	i	1.1	104
CCOC(=O)C1=C(O)/C(=C\c2cccc(OC)c2)N=C1C	-25	128	-3.0	3	i	0.92	102
Cc1cc(C)n2c(SCC(=O)N(CC(C)C)c3c(N)n(CC(C)C)c(=O)[nH]c3=O)nnc2n1	-20	120	nt	7	i	0.87	114
CC(C)CCNC(=O)NC(=O)CSc1nnc(-c2ccccc2F)n1N	-13	170	-0.2	-9	i	1	37
CCOC(=O)Cc1cnc(NC(=O)CSc2nc(N)cc(=O)[nH]2)s1	nt	nt	nt	-1	i	1	102
CCOC(=O)Cc1csc(NC(=O)CSc2nnc(-c3ccc(F)cc3)o2)n1	nt	nt	-0.5	-7	i	0.73	-13*
COc1ccc(OCCSc2nnnn2C2CCCCC2)cc1	nt	nt	-1.4	-3	i	1	102
O=C(Cn1c(=O)n(CC2CCCO2)c(=O)c2ccccc21)N1CCN(c2ccccc2)CC1 (stereo not drawn)	nt	nt	-0.6	0	i	1	102
Cc1cccc(N(CC(=O)NC(C)(C)C)C(=O)CNC(=O)c2cccs2)c1C	nt	nt	nt	nt	i	1	126
C=CCCN([C@@H](C)C(=O)OC)S(=O)(=O)c1ccccc1Br	nt	nt	nt	nt	i	0.83	97
CC(C)CC(c1nnnn1Cc1ccc(F)cc1)N1CCC(C(N)=O)CC1 (stereo not drawn)	20	53	nt	-1	i	1.1	108
CCN(Cc1cc(=O)n2ccsc2n1)Cc1nc2ccccc2c(=O)[nH]1	nt	nt	nt	-7	i	1	97
CCOC(=O)Cn1c(C)cc(=O)c2ccccc21	7	105	-1.4	3	i	0.97	99
O=C(COc1ccccc1[N+](=O)[O-])Nc1ccc(Br)cc1	nt	nt	nt	nt	i	1	126
O=C(O)c1cn(-c2ccccc2)nc1-c1ccc(Cl)cc1	12	103	0.4	-7	i	1.1	nt
S=C1SCN(Cc2ccccn2)CN1Cc1ccco1	30	98	-0.1	-3	i	1.2	100
Cc1cc(C)cc(C(=O)O/N=C(\N)c2ccc(Br)cc2)c1	-6	79	-1.1	-7	i	0.97	105
C=CCN(c1cccc(C(F)(F)F)c1)S(=O)(=O)c1cccc(C(=O)OCC(=O)Nc2ccccc2)c1	23	107	-0.7	-4	i	0.94	132
O=C1CC(c2ccccc2)CN1C(=O)c1ccccc1 (stereo not drawn)	nt	nt	-0.8	5	i	0.97	100
Cc1cc(OC(=O)c2cc(Cl)nc3ccccc23)ccc1Cl	-46	61	-0.1	-6	i	0.85	97

Compounds listed so far that have two or more sulfur atoms:
SMILES	INS promoter inh	INS promoter inh cell count	GALR2 agonist	PKD1 kinase inh	HSV replic up	HSV replic up primary fold	RGS16-Gao HTS
CCOC(=O)Cc1cnc(NC(=O)CSc2nc(N)cc(=O)[nH]2)s1	nt	nt	nt	-1	i	1	102
CCOC(=O)Cc1csc(NC(=O)CSc2nnc(-c3ccc(F)cc3)o2)n1	nt	nt	-0.5	-7	i	0.73	-13*
S=C1SCN(Cc2ccccn2)CN1Cc1ccco1	30	98	-0.1	-3	i	1.2	100

Remaining list, next part:
SMILES	INS promoter inh	INS promoter inh cell count	GALR2 agonist	PKD1 kinase inh	HSV replic up	HSV replic up primary fold	RGS16-Gao HTS
CCOC(=O)Nc1c2ccccc2nc2ccccc12	nt	nt	nt	nt	i	0.58	101
CNC(=O)COC(=O)/C=C/c1ccc(F)cc1	-40	120	nt	-3	i	0.96	105
CCCCC1CC1C(=O)Nc1ccc(OC)c(OC)c1 (stereo not drawn)	-6	115	-1.7	1	i	1	105
CC(C)C(=O)N(Cc1ccccc1)c1ccccn1	32	77	-1.2	7	i	0.87	244*[activator]
O=C(COc1ccccc1Cl)NC(=O)NC1CCCC1	nt	nt	0.2	2	i	0.73	104
COc1ccc(/C=C/C(=O)O)cc1S(=O)(=O)N1CCC(C)CC1	nt	nt	nt	nt	i	1	109
O=[N+]([O-])c1cccc(CSc2nc3ccccc3[nH]2)c1	nt	nt	-1.2	-10	i	1.1	102
COc1ccc(-c2nc3scc(-c4ccccc4)n3n2)cc1	55	58	-2.9	-5	i	0.83	101
S=c1[nH]nc(-c2cccs2)n1/N=C/c1cccs1	13	133	nt	-5	i	0.86	102
O=C(OC1Cn2c(=O)ccc(=O)n2C1)c1ccccc1	29	76	-0.1	-7	i	0.89	108
CCN(CC)C(=O)CN1CCN(c2ncccn2)CC1	nt	nt	-2.4	0	nt	nt	271
COc1ccc(/C=C/C(=O)OCc2nc3ccccc3c(=O)[nH]2)c(OC)c1	nt	nt	nt	nt	i	1.1	101
CCOC(=O)C1=NN(C(=O)c2ccco2)C2(CC2)C1	3	152	0.6	-8	i	0.88	97
COc1ccc(NC(=O)/C(C#N)=C\c2ccc(N3CCOCC3)o2)cc1	nt	nt	nt	-14	nt	nt	102
CCNC(=S)N/N=C1\C(=O)c2cccc3cccc1c23	19	54	-1.9	-5	i	0.95	101
Cc1c(C(=O)Nc2ccc(N3CCOCC3)cc2)oc2ccccc12	23	73	-1.3	18	i	0.92	99
Cc1ccc(F)cc1CNC(=O)c1cc(COc2ccc3ncccc3c2)on1	nt	nt	nt	-5	i	0.95	98
CC(=O)c1ccc(NC(=O)C(C)Sc2ccccn2)cc1 (stereo not drawn)	nt	nt	nt	-7	i	0.96	105
O=C(c1cc2ncc(Br)cn2n1)N1CCCCC1	21	111	nt	5	i	0.99	88
Cc1cc(C(=O)Nc2nnc(C(F)(F)F)s2)no1	11	112	-1.6	-1	i	1	96
CC(=C/C(=O)O)/C=C/c1ccc(Cl)o1	-10	93	-0.1	-1	i	0.95	108
COc1ccc(N(C)S(=O)(=O)c2cccc(C(=O)NC3=NCCS3)c2)cc1	30	72	-2.7	2	i	1	98
COc1cc(NC(=O)c2ccco2)c(OC)cc1NC(=O)CCC(=O)Nc1cccc(C)c1C	-29	150	0.5	10	i	0.83	93
COc1ccccc1NC(=O)c1cc(S(=O)(=O)NCc2ccccc2)ccc1F	-21	107	nt	2	i	0.93	107
Cc1ccc(NC(=O)c2cc(-c3ccc(C)o3)nc3ccccc23)cc1	3	167	-1.1	-6	i	0.76	82
C=CCN1CCN(c2ccncc2S(=O)(=O)N2CCOCC2)CC1	5	124	-0.7	-5	i	1.1	102
CC(=O)Nc1sc(N/N=C\c2ccccc2Cl)nc1-c1cccs1	35	129	-1.1	-3	i	0.98	104
COc1ccc(/C=N/NC(=O)C(O)(c2ccccc2)c2ccccc2)cc1OC	-7	114	-2.7	-12	i	0.94	90
Cc1nc(SCC(=O)NCc2ccccc2)c2c(=O)n(C)c(=O)n(C)c2n1	10	118	-0.8	6	i	0.78	101
C=CCc1c(C)nc(SCCC)[nH]c1=O	nt	nt	-1.1	-10	i	0.96	101
C=CCn1c(SCC(=O)Nc2cc(C)on2)nnc1C1COc2ccccc2O1 (stereo not drawn)	-42	148	nt	-3	i	1.1	106
CN(C)CCNC(=O)/C(=C/c1cccc([N+](=O)[O-])c1)NC(=O)c1ccccc1	nt	nt	-0.5	6	i	0.89	219*[activator]
O=C(N=C1SCC(=O)N1c1ccccc1)c1ccco1	-7	208	-2.8	-18	?	nt	103
Cc1ccc(NC(=O)COc2ccc(C3SCCS3)cc2)cc1	30	55	-0.4	-3	i	0.87	112
COc1ccccc1NS(=O)(=O)c1ccc(O)c(C(=O)OCC(=O)N2CCc3ccccc32)c1	nt	nt	nt	nt	i	1.1	93
Cc1ccc2[nH]c(SCC(=O)N3CCOCC3)nc2c1C	3	71	-1.6	-10	i	0.97	101
CC(=O)COc1ccc2c(C)c(-c3ccccc3)c(=O)oc2c1	nt	nt	nt	4	i	1	96
COc1ccccc1NC(=O)C1=C(C)Nc2nc3ccccc3n2C1c1cccs1 (stereo not drawn)	-403	23	0.4	-5	i	0.69	106
C=CCc1cccc(/C=N/NC(=O)c2ccccc2OC)c1O	45	72	nt	18	i	0.92	96
CCC(=O)N1CCc2cc(S(=O)(=O)NCCC(=O)N3CCc4ccccc4C3)ccc21	nt	nt	-1.9	-13	i	0.9	106
O=C(c1cccc([N+](=O)[O-])c1)c1ccccn1	nt	nt	nt	nt	i	0.9	85
CCOC(=O)C1=C(c2ccccc2)NC(SCC)=C(C#N)C1c1cccnc1 (stereo not drawn)	-63	80	-1.4	5	i	0.93	104
CC(C)c1ccc(C2NC(=S)NC3=C2C(=O)CCC3)cc1 (stereo not drawn)	7	117	-2.2	-12	i	0.82	103
CC(C)(C)CN1CCNC(=O)C1CC(=O)NCCc1ccccc1C(F)(F)F (stereo not drawn)	nt	nt	nt	2	i	0.97	98
CCOC(=O)/C(C#N)=N/Nc1c(S(=O)(=O)Cc2ccco2)csc1C(=O)OC	nt	nt	nt	nt	i	0.94	100
N#Cc1ccc(N2CCN(c3ccc(F)cc3)CC2)cc1	-32	90	-0.6	-3	i	0.94	84
O=C(c1ccc([N+](=O)[O-])cc1[N+](=O)[O-])n1cnc2ccccc21	-17	102	nt	7	i	0.97	99
O=S(=O)(c1ccc2c(c1)OCCO2)N1CCC(c2nc3ccccc3s2)CC1	14	63	-2.4	-8	i	1.1	98
Cn1cnnc1SCC(=O)c1ccc(OC(F)F)cc1	-18	126	-0.7	2	i	0.95	-34
Cc1ccc2[nH]c3c(N4CCN(Cc5ccccc5)CC4)ncnc3c2c1	nt	nt	-0.2	-8	i	0.8	98
CN(C)c1ccc(NC(=O)c2ccc(COc3cccc(Cl)c3)o2)cc1	34	167	-2.8	15	i	1	101
CC(C)OC(=O)c1c(-c2ccc(C(C)C)cc2)csc1NC(=O)C1CCCO1 (stereo not drawn)	nt	nt	-2.4	-2	i	0.94	101
COCCCNC(=S)Nc1cccc2ncccc12	nt	nt	nt	3	i	0.85	96
O=C1NC(c2ccccc2)=C(c2nc3ccccc3s2)C(c2ccc(O)cc2)N1 (stereo not drawn)	11	106	-0.1	2	i	0.54	91
O=c1[nH]c2ccc(S(=O)(=O)N3CCCCC3)cc2[nH]1	-6	89	-2.8	0	i	1.1	108
Cc1nn(-c2ccccn2)c2c1C(c1ccncc1)C1=C(CC(C)(C)CC1=O)N2 (stereo not drawn)	7	120	-0.2	-4	i	0.88	105
CNC(=S)N(CCc1c(C)[nH]c2ccc(OC)cc12)Cc1cc(OC)c(OC)c(OC)c1	-2	76	-0.3	-13	nt	nt	102
O=C(NC1CCCC1)C(c1ccc(N2CCOCC2)cc1)N(Cc1ccco1)C(=O)c1ccco1 (stereo not drawn)	nt	nt	-1.0	-11	i	1	101
CCCCC(CC)C(=O)Nc1ccc(Nc2ccccc2)cc1 (stereo not drawn)	15	87	-0.5	-9	i	0.84	12
CCCCNC(=S)Nc1ccc(-c2nc3ccc(C)cc3s2)cc1	-27	112	0.1	-8	i	0.83	119

Additional compounds follow.
SMILES	INS promoter inh	INS promoter inh cell count	GALR2 agonist	PKD1 kinase inh	HSV replic up	HSV replic up primary fold	RGS16-Gao HTS
CC1Cc2nc(SCC(=O)Nc3ccc(F)cc3F)n(C)c(=O)c2S1 (stereo not drawn)	-39	216	-0.1	-1	i	0.76	119
COc1ccc(Cl)cc1S(=O)(=O)Oc1ccc(NC(C)=O)cc1	44	101	-2.8	2	i	0.93	81
CC1CCc2sc(C(=O)OC(C)C(=O)Nc3ncc(Cl)cc3Cl)cc2C1 (stereo not drawn)	17	120	-0.6	-16	i	0.99	96
CCCNC(=O)COc1nc2ccccc2nc1N1CCOCC1	7	68	-1.6	-7	i	1.1	83
COC(=O)c1nn(-c2cccc(C)c2)c2nnc(Cc3ccccc3)c(=O)n12	46	135	0.1	-7	i	1	206

Only RGS16-Gao HTS (5 entries from above):
Compound	RGS16-Gao HTS
CC1Cc2nc(SCC(=O)Nc3ccc(F)cc3F)n(C)c(=O)c2S1 (stereo not drawn)	119
COc1ccc(Cl)cc1S(=O)(=O)Oc1ccc(NC(C)=O)cc1	81
CC1CCc2sc(C(=O)OC(C)C(=O)Nc3ncc(Cl)cc3Cl)cc2C1 (stereo not drawn)	96
CCCNC(=O)COc1nc2ccccc2nc1N1CCOCC1	83
COC(=O)c1nn(-c2cccc(C)c2)c2nnc(Cc3ccccc3)c(=O)n12	206

Outcome played no part in choosing rows (roughly 1.2% active in at least one column).
